Bioassay records (PubChem BioAssay)
AmpC inh no det: AmpC beta-lactamase inhibition, detergent-free assay; P00811; AmpC nitrocefin hydrolysis, absorbance 480 nm, no detergent; potencies from a single point are estimates; Potency, µM (titrated, usually from 28.7 µM), without a hit: at the top dose activity change, negative = inhibition; 1.8% of 71,000 active; active = falling curve, for most hits resting on a single point; inconclusive = weak or doubtful change; inactive = flat or rising curve; further: % of control where 0% means no effect; about half of the hits show no inhibition at the top dose; a quarter of the inactives give rising signals
Target sequence (P00811 whole entry, looked up): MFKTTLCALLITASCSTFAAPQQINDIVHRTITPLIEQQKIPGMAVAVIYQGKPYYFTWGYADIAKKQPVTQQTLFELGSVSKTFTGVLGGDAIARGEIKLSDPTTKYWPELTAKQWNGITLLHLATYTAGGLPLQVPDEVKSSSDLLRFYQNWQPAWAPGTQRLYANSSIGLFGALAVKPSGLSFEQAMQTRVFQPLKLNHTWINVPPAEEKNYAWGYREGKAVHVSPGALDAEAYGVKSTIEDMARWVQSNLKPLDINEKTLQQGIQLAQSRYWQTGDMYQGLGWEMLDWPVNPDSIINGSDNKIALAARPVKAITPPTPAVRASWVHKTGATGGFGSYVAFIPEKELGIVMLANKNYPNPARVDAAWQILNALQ
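AmpC in 20 mM phosphate buffer pH 7.0 was preincubated 15 min at room temperature with compounds. Nitrocefin (800 uM stock) was then added and hydrolysis followed at 480 nm every 20 s for 4 min.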
The depositor's hits bear a star; & = joins results of further samples; [ ] = dose if it differs, or a comment. Potency means the concentration at half of the fitted maximal effect. The list is partial. The share of hits here may be higher or lower than overall.

`COc1ncc2nc(C)c(=O)n(-c3ccccc3)c2n1` gave AmpC inh no det 10.0%.
`Cc1cc(C)n(-c2nc(Nc3ccccc3)nc(-n3nc(C)cc3C)n2)n1` gave AmpC inh no det -12.7%.
For COC(=O)c1ccc(CN2C(=O)NC3(CCCCC3C)C2=O)o1 (stereo unspecified) the results were AmpC inh no det 0.1%.
Screening Cc1ccc(-n2c(SCC(=O)N3CCOCC3)nnc2-c2cccnc2)cc1C returned AmpC inh no det 28.2%.
For Cn1c(=O)c2[nH]c(-c3ccccc3)nc2n(C)c1=O the results were AmpC inh no det -0.1%.
Screening CCSCC[C@H](N)C(=O)O returned AmpC inh no det 3.0%[5.75 µM].
Screening CCCCn1c(SCC(=O)c2ccc3c(c2)OCCO3)nnc1-c1ccoc1C returned AmpC inh no det 1.8%.
`CCCCNC(=O)Cn1c(-c2ccc(OC)cc2)noc1=O` gave AmpC inh no det 5.1%.
O=C(Nc1cc(C(F)(F)F)ccc1N1CCOCC1)c1n[nH]c(=O)c2ccccc12 was read as AmpC inh no det 107.4%.
Screening O=C(NCCC1=CCCCC1)c1cc2c(s1)CS(=O)(=O)C2 returned AmpC inh no det 1.0%.
Screening O=C(N=c1nc2ccccn2s1)c1ccccc1 returned AmpC inh no det -15.3%.
For COC(=O)[C@@]1(Cc2ccc(OC)cc2)[C@H]2c3cc(C(=O)N(C)C)n(Cc4cccc5ccccc45)c3C[C@H]2CN1C(=O)c1ccccc1 the results were AmpC inh no det 112.4%.
CCOC(=O)c1ccc(N2C(=O)CC(Sc3nc(O)c(CC)c(=O)[nH]3)C2=O)cc1 (stereo unspecified) was read as AmpC inh no det 2.6%.
CCOC(=O)C1=C(C)N(c2nonc2NC(C)=O)C(N)=C(C#N)C1c1ccccc1F (stereo unspecified) was read as AmpC inh no det 35.8%.
Oc1ccc(Cl)cc1CNCC1CCCO1 (stereo unspecified) was read as AmpC inh no det -22.0%.
c1ccc(-c2nnc(CN3CCCc4ccccc43)o2)cc1 was read as AmpC inh no det 10.3%.
Screening Cc1ccc(-n2c(CNc3ccc(F)cc3)nnc2SCC(=O)N2CCCC2)cc1 returned AmpC inh no det 123.4%.
Screening Cc1c2c(nc3ccccc13)-c1cccc(=O)n1C2 returned AmpC inh no det 9.9%.
Screening Cc1noc(C)c1C(=O)N1CCC2(CCCN(C(=O)NC(C)C)C2)CC1 returned AmpC inh no det 27.3%.
Screening CCOC(=O)C1CN(S(=O)(=O)c2ccc(C)cc2)CCN1S(=O)(=O)c1ccc(C)cc1 (stereo unspecified) returned AmpC inh no det 25.7%.

A portion taken from the entries so far, as a working copy:
`COc1ncc2nc(C)c(=O)n(-c3ccccc3)c2n1` gave AmpC inh no det 10.0%.
`Cc1cc(C)n(-c2nc(Nc3ccccc3)nc(-n3nc(C)cc3C)n2)n1` gave AmpC inh no det -12.7%.
For COC(=O)c1ccc(CN2C(=O)NC3(CCCCC3C)C2=O)o1 (stereo unspecified) the results were AmpC inh no det 0.1%.
Screening Cc1ccc(-n2c(SCC(=O)N3CCOCC3)nnc2-c2cccnc2)cc1C returned AmpC inh no det 28.2%.

More records follow:
Screening CCN(CC(=O)NCc1cccs1)C(=O)c1cc(S(=O)(=O)N2CCOCC2)ccc1C returned AmpC inh no det 15.4%.
O=C1COc2ccccc2N1Cc1ccccc1Cl was read as AmpC inh no det 5.8%.
CCCOc1ccc(N2CC(C(=O)Nc3ccccn3)CC2=O)cc1 (stereo unspecified) was read as AmpC inh no det 29.1%.
For Nc1ccc(N2CCN(Cc3ccccc3Cl)CC2)c(Cl)c1 the results were AmpC inh no det 34.5%.
For Cn1nnnc1SCCNCc1cccc2ccccc12 the results were AmpC inh no det -1.3%.
For CCOC(=O)C1CCCc2c1[nH]c1c(C(=O)O)cccc21 (stereo unspecified) the results were AmpC inh no det -15.8%.
`CCC(Cl)[N+](=O)[O-]` (stereo unspecified) gave AmpC inh no det 9.8%.
Clc1ccc(-c2nnc(SCc3nc(-c4ccccc4)no3)o2)cc1 was read as AmpC inh no det 3.98µM*[single pt active].
`N#Cc1cc2c(nc1SCc1cccnc1)CCC2` gave AmpC inh no det 2.4%.
Screening CCSc1nnc(NC(=O)c2nn(C(C)C)c(=O)c3ccccc23)s1 returned AmpC inh no det 115.1%.
CN(C)C(=O)C1CCN(Cc2c[nH]c3ccccc23)CC1 was read as AmpC inh no det -1.0%[5.75 µM].
Screening Cc1ccc(NS(=O)(=O)c2cccc(C(=O)OCC(=O)NCc3ccco3)c2)cc1 returned AmpC inh no det -8.2%.
Screening CCOC(=O)C1CCCN(C(=O)c2cn(CC)c3ccc(S(=O)(=O)N(C)C)cc3c2=O)C1 (stereo unspecified) returned AmpC inh no det 38.3%.
For Cc1cnc(NC(=O)CSc2nnc(-c3ccc(Cl)cc3Cl)n2N)s1 the results were AmpC inh no det 10.2%.
For NC(=O)c1cnn(Cc2ccc(Cl)cc2)c1N the results were AmpC inh no det -5.4%.
`CN(C)c1ccc(C(=O)Nc2ccc(S(=O)(=O)NC3=NCCCCC3)cc2)cc1` gave AmpC inh no det 20.9%.
CC(=O)NCCSCCNC(C)=O was read as AmpC inh no det -1.5%.
Screening O=C(O)CNC(=O)c1ccc([N+](=O)[O-])cc1 returned AmpC inh no det -10.0%.
Screening NC(=O)C1CC=CCC1C(=O)OCC(Cl)=C(Cl)Cl (stereo unspecified) returned AmpC inh no det 0.2%.
`O=NO` gave AmpC inh no det -9.1%&-3.2%.
Screening Cc1ccc(-c2nn(-c3ccccc3)cc2C2SCC(=O)N2Cc2ccccc2)o1 (stereo unspecified) returned AmpC inh no det 15.5%.
Screening Cc1ccccc1-n1c(SC(C)C(N)=O)nnc1-c1cccnc1 (stereo unspecified) returned AmpC inh no det 13.3%.
`CCCn1c(-c2ccc(F)cc2)nc2c(N3CCN(CCC(=O)OCC)CC3)nc(C)nc21` gave AmpC inh no det 120.7%.
For CSc1ccc(S(=O)(=O)Nc2ccc(F)cc2)cc1 the results were AmpC inh no det -9.4%.
`O=C(NC12CC3CC(CC(C3)C1)C2)N1CCCC(CO)C1` (stereo unspecified) gave AmpC inh no det -3.9%.
For N#Cc1c(-c2ccco2)cc(-c2cccnc2)nc1N the results were AmpC inh no det 9.9%.
CS(=O)(=O)N1CCN(C(=O)c2ccc(F)cc2)CC1 was read as AmpC inh no det -9.7%.
`COc1cccc(-c2cncnc2NCc2cccs2)c1` gave AmpC inh no det 9.8%.
For Cc1ccc(NC(=O)c2cc(NC(=O)c3ccco3)ccc2N2CCOCC2)cc1 the results were AmpC inh no det 77.7%.
Screening CCOC(=O)N1CCN(C(=O)CSc2ncnc3ccccc23)CC1 returned AmpC inh no det 24.7%.
For O=C(c1cccn2c(=O)c3cc(Br)ccc3nc12)N1CCN(c2ccccn2)CC1 the results were AmpC inh no det 115.9%.
`COC(=O)c1[nH]c2ccc(Br)cc2c1NC(=O)C(C)N1CCN(C2CCCCC2)CC1` (stereo unspecified) gave AmpC inh no det 63.0%.
Cc1nnc2c3cnn(-c4ccc(Cl)cc4)c3ncn12 was read as AmpC inh no det 16.9%.
CC1CCCCN1C(=O)Cc1ccc(F)cc1 (stereo unspecified) was read as AmpC inh no det 4.8%.
COc1cccc(C(=O)N2CCN(C(=O)c3cccc4ccccc34)CC2)c1OC was read as AmpC inh no det 83.7%.
Cc1nc2ccc(NC(=O)N3CCN(c4ccccn4)CC3)cc2s1 was read as AmpC inh no det 16.4%.
Screening O=c1ccnc(SCc2ccccc2Cl)[nH]1 returned AmpC inh no det 7.2%.
`COc1ccccc1-n1cnnc1SCC(=O)N1CCN(S(=O)(=O)c2ccccc2)CC1` gave AmpC inh no det 81.0%.
`O=S(=O)(NCc1ccc2c(c1)OCO2)c1ccc2c(c1)oc1ccccc12` gave AmpC inh no det 9.3%.
CCN(CC)C(=O)CSc1nnc([C@H](Cc2c[nH]c3ccccc23)NC(=O)OC(C)(C)C)o1 was read as AmpC inh no det 79.0%.

Overlap with the part before: four entries, then new ones.
Screening O=c1ccnc(SCc2ccccc2Cl)[nH]1 returned AmpC inh no det 7.2%.
`COc1ccccc1-n1cnnc1SCC(=O)N1CCN(S(=O)(=O)c2ccccc2)CC1` gave AmpC inh no det 81.0%.
`O=S(=O)(NCc1ccc2c(c1)OCO2)c1ccc2c(c1)oc1ccccc12` gave AmpC inh no det 9.3%.
CCN(CC)C(=O)CSc1nnc([C@H](Cc2c[nH]c3ccccc23)NC(=O)OC(C)(C)C)o1 was read as AmpC inh no det 79.0%.
For CCCN1C(=O)c2ccc(C(=O)NC3=NCCS3)cc2C1=O the results were AmpC inh no det 2.1%.
`CC(c1ccccc1)n1cc(C(=O)NCC2CCCO2)nn1` (stereo unspecified) gave AmpC inh no det 2.1%.
`C/C(N)=C(/C#N)C(=O)CSc1nc(C2CCCCC2)n(-c2ccccc2)n1` gave AmpC inh no det 31.2%.
O=C(c1ccccc1)c1cccn1CC(=O)N1CCN(c2ccccc2)CC1 was read as AmpC inh no det 55.7%.
CCCCCSc1nc2c(c(=O)[nH]c(=O)n2C)n1C(C)C was read as AmpC inh no det 4.5%.
Cc1ccc(CNC(=O)C2CC(=O)OC23CCCC3)c(C)c1 (stereo unspecified) was read as AmpC inh no det 3.8%.
Screening COc1cccc(N2CC(C(=O)OC(C)C(=O)c3ccccc3)CC2=O)c1 (stereo unspecified) returned AmpC inh no det 62.7%.
`COc1cccc(/C=C/c2ccncc2)c1OC` gave AmpC inh no det 27.4%.
COc1ccc(OC)c(S(=O)(=O)N2CCCCC2C(=O)N2CCN(c3ccccn3)CC2)c1 (stereo unspecified) was read as AmpC inh no det 62.5%.
Cn1c(=O)cc(OCC(=O)N2CCC3(CC2)OCCO3)c2ccccc21 was read as AmpC inh no det 8.6%.
`COC(=O)[C@@]1(Cc2ccc(F)cc2)[C@H]2c3cc(C(=O)N(C)C)n(Cc4ccc(O)c(OC)c4)c3C[C@H]2CN1C(=O)c1ccccc1` gave AmpC inh no det 154.0%.
Screening Cc1ccc(-c2nc(C3CCCN(S(=O)(=O)c4ccc(C)cc4)C3)no2)cc1 (stereo unspecified) returned AmpC inh no det -13.2%.
Cc1ccnc(NC(=O)Nc2cccc(F)c2)c1 was read as AmpC inh no det -9.4%.
Nc1c(C(=O)NCc2ccco2)nnn1Cc1ccccc1 was read as AmpC inh no det -1.0%.
Screening CCOC(=O)C1=C(CS(=O)(=O)c2ccccc2)NC(=O)NC1c1ccccc1OCC (stereo unspecified) returned AmpC inh no det 24.2%.
For COc1ccc(NC(=O)CSc2nnc(CNC(=O)c3ccco3)n2-c2ccccc2OC)cc1 the results were AmpC inh no det 23.6%.
c1ccc(COc2ccc(CNn3cnnc3)cc2)cc1 was read as AmpC inh no det 17.5%.
Screening Cc1csc2ncc(C(=O)Nc3ccc4c(c3)OCCO4)c(=O)n12 returned AmpC inh no det 7.8%.
For C=CCn1c(SCc2ccc(C(=O)OC)cc2)nnc1-c1sc(N)nc1C the results were AmpC inh no det 28.6%.
`Cc1nc(NC2=NCN(CCN3CCOCC3)CN2)nc2c(C)cccc12` gave AmpC inh no det -16.8%.

Overlap with the part before: 2 compounds; new compounds follow.
For C=CCn1c(SCc2ccc(C(=O)OC)cc2)nnc1-c1sc(N)nc1C the results were AmpC inh no det 28.6%.
`Cc1nc(NC2=NCN(CCN3CCOCC3)CN2)nc2c(C)cccc12` gave AmpC inh no det -16.8%.
CCN(CC)CCN1C(=O)c2ccccc2NC1c1cccc(F)c1 (stereo unspecified) was read as AmpC inh no det 7.7%.
For O=C(Nc1ccccc1F)c1cc(S(=O)(=O)N2CCCCC2)cs1 the results were AmpC inh no det -9.6%.
Screening CCN(CC)S(=O)(=O)c1ccc2c(c1)c(=O)c(C(=O)N1CCN(c3ccccc3)CC1)cn2C returned AmpC inh no det 106.7%.
For O=C(c1ccco1)N1CCN(C(=O)c2cc(-c3ccncc3)nc3ccc(Br)cc23)CC1 the results were AmpC inh no det 147.8%.
`O=C(CC(Sc1ccccc1)c1cccs1)c1ccco1` (stereo unspecified) gave AmpC inh no det -7.3%.
For CCOC(=O)c1c(N)n(Cc2ccc(OC)cc2)c2nc3ccccc3nc12 the results were AmpC inh no det 82.1%.
For CC(=O)c1c(C)[nH]c(C(=O)NCCc2cccc(C)c2)c1C the results were AmpC inh no det -12.4%.
CCCCCCCCCCCCCCSCC(=O)O was read as AmpC inh no det 20.5%.
For COc1cc(OC)c(OC)cc1CNc1cc(C)ccc1OC the results were AmpC inh no det 93.5%.
Screening O=C(CSc1nnc(-c2cccs2)o1)c1cccs1 returned AmpC inh no det -5.2%.
For CN(C)S(=O)(=O)NC(c1ccccc1)c1ccccc1 the results were AmpC inh no det -11.4%.
`Cc1cccc(N2CCN(C(=O)Cn3sc4nc(C)cc(C)c4c3=O)CC2C)c1` (stereo unspecified) gave AmpC inh no det 130.5%.
Screening Cc1occc1C(=O)NC(C)C1CCCO1 (stereo unspecified) returned AmpC inh no det 4.8%.
Cc1nc2cc(NC(=O)N3c4ccccc4CC3C)ccc2o1 (stereo unspecified) was read as AmpC inh no det 12.0%.
`COc1ccc2nc3cc(Cl)ccc3c(Nc3ccc(O)c(CN4CCN(C)CC4)c3)c2c1` gave AmpC inh no det 2.2%[5.75 µM].
`COc1cccc(NC(=O)COC(=O)c2cccnc2)c1` gave AmpC inh no det -1.4%.
CCOC(=O)CSc1nc2cc(OCC)ccc2cc1C#N was read as AmpC inh no det 14.6%.
CC(C)N=C1SCC(C)(/C=N/O)S1 (stereo unspecified) was read as AmpC inh no det -2.2%.
C=CCNC(=O)c1ccccc1NC(=O)c1ccccc1 was read as AmpC inh no det 3.7%.
`Cc1ccc(S(=O)(=O)c2n[nH]n3c2nc(=O)c2ccccc23)cc1` gave AmpC inh no det -22.0%.
